KCNQ2 block: KCNQ2 potassium channel inhibitors, primary screen, cell-based, CHO-K1, FluxOR thallium flux, B-score (AID 2156). O88943. 20 min; hits give low values; only compounds with negative scores are shown here; some inactives read as strong as hits. B-score at 10 µM. hit rate 1.1% among 310,000;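 active means fluorescence ratio B-score at most minus 3 library SDs, with starting brightness B-score within 2 library SDs, cut at about -5.5 in these data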
Target sequence (O88943 whole entry, looked up): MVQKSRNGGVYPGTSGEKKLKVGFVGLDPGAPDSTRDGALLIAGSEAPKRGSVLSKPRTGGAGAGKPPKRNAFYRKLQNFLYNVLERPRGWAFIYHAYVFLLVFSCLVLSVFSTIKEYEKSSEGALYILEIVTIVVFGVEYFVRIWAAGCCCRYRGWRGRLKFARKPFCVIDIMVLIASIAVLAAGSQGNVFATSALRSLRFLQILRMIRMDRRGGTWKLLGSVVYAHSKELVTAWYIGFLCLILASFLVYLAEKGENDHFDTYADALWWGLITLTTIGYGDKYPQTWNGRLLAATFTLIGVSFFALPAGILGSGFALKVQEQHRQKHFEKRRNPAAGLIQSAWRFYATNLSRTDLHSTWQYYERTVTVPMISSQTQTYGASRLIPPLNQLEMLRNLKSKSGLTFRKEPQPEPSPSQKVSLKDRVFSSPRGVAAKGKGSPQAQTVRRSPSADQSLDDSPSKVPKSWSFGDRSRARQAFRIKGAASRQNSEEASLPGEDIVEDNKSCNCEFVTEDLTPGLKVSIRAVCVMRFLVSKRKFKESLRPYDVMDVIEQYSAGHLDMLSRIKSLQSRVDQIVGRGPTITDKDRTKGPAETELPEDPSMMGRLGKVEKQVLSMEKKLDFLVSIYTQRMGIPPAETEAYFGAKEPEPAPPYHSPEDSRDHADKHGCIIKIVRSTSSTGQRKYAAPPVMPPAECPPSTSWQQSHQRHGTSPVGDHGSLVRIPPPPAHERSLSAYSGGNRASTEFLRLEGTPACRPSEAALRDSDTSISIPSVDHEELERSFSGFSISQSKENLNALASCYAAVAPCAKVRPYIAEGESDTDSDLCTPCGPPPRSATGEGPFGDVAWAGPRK
KCNQ2 block baseline: further read-out of KCNQ2 block, marked with its call; B-score; measured here: initial fluorescence intensity artifact check;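 brightness before thallium and not channel activity; 0 = typical well and far values either way flag optical interference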
Active calls of the source: *; i = inactive. A portion of the library. The share of hits here may be higher or lower than overall.

Values run as follows: KCNQ2 block | KCNQ2 block baseline
- O=C(Cn1ncc2c1-c1ccccc1OC2)N(Cc1ccco1)C1CCCCC1
→ i | -0.8
- Cc1ccc(-c2c3c(=O)n(C)c(=O)n(C)c3cn2Cc2cccnc2)cc1
→ i | -0.1
- Nn1c(SCC(=O)NC2CCCCC2)nnc1-c1ccccc1
→ i | 0.72
- CCCCn1c(N)c(N(CC)C(=O)c2cccc(OC)c2)c(=O)[nH]c1=O
→ i | -1.1
- O=C(NCC(=O)N1CCC(Cc2ccccc2)CC1)c1ccc(Cl)cc1
→ i | 0.42
- CC(=O)Nc1ccc(S(=O)(=O)N(CC(=O)Nc2cc(C)on2)Cc2ccc(F)cc2)cc1
→ i | -0.05
- Cc1ccc(NC(=S)Nc2ccccn2)c(C)c1
→ i | -0.34
- O=C(NCc1ccncc1)Nc1ccc2c(c1)OCO2
→ i | 0.5
- O=C(c1cc(-c2cccnc2)nc2ccccc12)N1CCCc2ccccc21
→ i | -0.51
- CCOC(=O)c1nc(-c2ccc(OC)c(OC)c2)no1
→ i | 2.5
- O=C(Nc1ccc(S(=O)(=O)N2CCOCC2)cc1)c1ccco1
→ i | 0.29
- Cn1cccc1CC(=O)N/N=C\c1c2ccccc2cc2ccccc12
→ i | -1.2
- COc1ccc(CCNC(=O)Cn2cnc3scc(-c4ccccc4)c3c2=O)cc1OC
→ i | -3.4
- COc1cc(NC(=O)c2cc(Cl)ccc2Cl)ccc1-c1cc2ccccc2oc1=O
→ i | -0.01
- CCN1C(=O)[C@H]2[C@@H](c3ccc(SC4CCCCC4)cc3)N3CCCC[C@@]3(C(=O)OC)[C@H]2C1=O
→ i | -0.01
- C1CCc2c(nc3nnnn3c2NCC2CC2)C1
→ i | 1.3
- COc1ccc(Cc2nnc(SCC(=O)Nc3ncc(C)s3)o2)cc1
→ i | -0.24
- Cc1ccccc1S(=O)(=O)Cc1ccc(C(=O)NCc2ccc(F)cc2)o1
→ i | -0.14
- Cc1ccc(OCC(=O)Oc2ccc(C)c(C)c2)cc1
→ i | -0.67
- Cc1ccc(Nc2cc(C)nc3nc(C)nn23)cc1
→ i | 0.33
- COc1ccc(Br)cc1CN1CCN(C(=O)c2ccco2)CC1
→ i | 0.15
- CCC(C)(C)n1nnnc1C(c1cccc(C#N)c1)N1CCN(c2cccc(C)c2C)CC1 (stereo not given)
→ i | -2.1
- O=c1c2ccccc2nnn1CSc1nc2sc3c(c2c(=O)n1CC1CCCO1)CCC3 (stereo not given)
→ i | -0.68
- O=c1[nH]c(=S)n(-c2ccc(Br)cc2)c2ncccc12
→ i | 0.44
- COc1cccc(NC(=O)CCC2CCN(C(=O)c3cncs3)CC2)c1
→ i | 1.4
- COc1ccc(C2Nc3ccccc3C(=O)N2Cc2ccco2)cc1COc1ccccc1F (stereo not given)
→ i | -0.24
- CC(NC(=O)c1ccccc1Cl)C1COc2ccccc2O1 (stereo not given)
→ i | 0.74
- Cn1c(O)c(N=NC(=S)Nc2ccccc2F)c2cc(S(=O)(=O)N3CCOCC3)ccc21
→ i | -2.1
- COc1ccc(C=NCCCN2CCOCC2)cc1
→ i | -0.14
- Cc1cc(C)n(-c2nc3ccccc3nc2N2CCCC2)n1
→ i | 0.25

Gathered by group: those above containing bromine.
Values run as follows: KCNQ2 block | KCNQ2 block baseline
- COc1ccc(Br)cc1CN1CCN(C(=O)c2ccco2)CC1
→ i | 0.15
- O=c1[nH]c(=S)n(-c2ccc(Br)cc2)c2ncccc12
→ i | 0.44

4 entries from above, sorted by the number in KCNQ2 block baseline, lowest first:
Values run as follows: KCNQ2 block | KCNQ2 block baseline
- Cn1cccc1CC(=O)N/N=C\c1c2ccccc2cc2ccccc12
→ i | -1.2
- CC(=O)Nc1ccc(S(=O)(=O)N(CC(=O)Nc2cc(C)on2)Cc2ccc(F)cc2)cc1
→ i | -0.05
- O=C(NCc1ccncc1)Nc1ccc2c(c1)OCO2
→ i | 0.5
- CCOC(=O)c1nc(-c2ccc(OC)c(OC)c2)no1
→ i | 2.5

Next part
Values run as follows: KCNQ2 block | KCNQ2 block baseline
- NC(=O)c1ccc(Oc2ccc3c(c2)CCC3)c([N+](=O)[O-])c1
→ i | -0.97
- OC1CCCCC1Sc1nc2ccccc2s1 (stereo not given)
→ i | 0.29
- NC1=NC(=O)/C(=C\c2ccc(-c3ccc(Cl)cc3)o2)S1
→ i | 0.71
- O=C1NC[C@H](c2ccccc2)N(CCc2cccc(F)c2)C1=O
→ i | 0.27
- CC(=O)c1cccc(NC(=O)c2cc(-c3ccco3)nc3ccccc23)c1
→ i | -1.5
- Cc1cccnc1NC(=S)NC(=O)/C=C/c1ccccc1
→ i | -0.23
- COc1ccccc1CNC(=O)C1CCCN(S(=O)(=O)c2c(C)[nH]c(=O)[nH]c2=O)C1 (stereo not given)
→ i | 1.5
- O=C(CN1C(=O)COc2ccccc21)c1cccc(Cl)c1
→ i | -0.57
- O=S1OC(c2ccccc2)c2cc(Cl)ccc21 (stereo not given)
→ i | 3
- COc1cc(NC2=Nc3cccc4cccc2c34)cc(OC)c1OC
→ -6* | 2.1*
- C[C@@H]1CC=C[C@H]2[C@H]1C(=O)N(Cc1ccccc1)[C@H]2c1ccc2ccccc2c1
→ i | 1.1
- O=C1C2C3c4ccccc4C(c4ccccc43)[C@@H]2C(=O)N1c1ccccn1 (stereo not given in full)
→ i | 1.5
- CC(C)c1ccc(NC(=O)CN(Cc2ccccc2)S(C)(=O)=O)cc1
→ i | -0.23
- CC1Oc2ccccc2OC1(O)c1ccc2ccccc2n1 (stereo not given)
→ i | -0.97
- Cn1nnnc1SCC(=O)Nc1ccc(Cl)c(S(=O)(=O)N2CCOCC2)c1
→ i | -0.48
- COC(=O)C(CC(=O)c1ccc(Br)cc1)n1ccnc1 (stereo not given)
→ -6.2* | 2.9*
- O=S(=O)(Nc1ccc(-n2cccc2)cc1)c1ccc(Cl)cc1Cl
→ i | 2
- CC(Nc1ccc2c(c1)OCCO2)C(=O)Nc1ccc2c(c1)OCO2 (stereo not given)
→ i | 0.1
- CC1CCCC(C)N1C(=O)Cn1cnc2cc([N+](=O)[O-])ccc2c1=O (stereo not given)
→ i | -1.1
- CCOc1ccc(N2C(=O)CC(Sc3n[nH]c(-c4ccccc4)n3)C2=O)cc1 (stereo not given)
→ i | 0.61
- Cc1nc(C)c(/C(O)=C\c2nc3ccc([N+](=O)[O-])cc3oc2=O)o1
→ i | 0.26
- C=CCS/C(=N\n1cnc2ccccc2c1=O)N(CC)CC
→ i | 0.09
- COc1ccc(CN(C)S(=O)(=O)c2nnc(NC(=O)c3ccccc3Br)s2)cc1
→ i | -1.1
- CCc1nnc(NC(=O)C2CC(=O)N(CCc3ccc(F)cc3)C2)s1 (stereo not given)
→ i | -0.65
- Cc1ccc(C)c(CN2C(=O)COc3ccc(C(=O)c4ccccc4C(=O)O)cc32)c1
→ i | -1.5
- O=C(CNc1ccc(Oc2ccccc2)cc1)N1CCOCC1
→ i | 0.25
- COc1ccc(C(=O)NNC(=O)C23CC4CC(CC(C4)C2)C3)c(OC)c1
→ i | -1.1
- COCCOC(=O)c1c(C)oc2ccc(OCc3cc(C(=O)OC)oc3C)cc12
→ i | -0.06
- CCOC(=O)C1CCN(S(=O)(=O)c2c(Cl)ccc3nonc23)CC1
→ i | -3
- C(=C\c1ccccc1)/CN1CCN(C(c2ccccc2)c2ccccc2)CC1
→ i | 0.69
- Cc1cccc(C(=O)NCc2nnc(SCC(=O)Nc3nncs3)n2C)c1
→ i | 0.95
- COC(=O)CSC1=C(C#N)C(=O)NC2(CCCCC2)S1
→ i | 1.2
- c1ccc(-c2cc(N3CCCCCC3)n[nH]2)cc1
→ i | -0.67
- CNS(=O)(=O)c1cccc(C(=O)NCC2(N3CCCCC3)CCCCC2)c1
→ i | 0.53
- Cc1c2c(nc3c(C)cccc13)OC(C)C2 (stereo not given)
→ i | -0.25
- CCCC(c1nnnn1C(C)(C)C)N1CCN(Cc2ccccc2OC)CC1 (stereo not given)
→ i | -0.5
- CC1=C(C(=O)Nc2ccccc2)C(c2ccccn2)n2ncnc2N1 (stereo not given)
→ i | -0.13
- O=C(CSc1nc2ccccc2c(=O)[nH]1)c1ccc(O)c(O)c1
→ i | 0.26
- CCn1c(SCC#N)nc2c(c1=O)C1(CCCC1)Cc1ccccc1-2
→ i | 1.1
- CC(=O)NC1C(=O)N(CCc2ccccc2)c2ccccc21 (stereo not given)
→ i | -0.71
- Cc1ccc2nc(-c3cccnc3)cc(C(=O)N3CCN(c4ccc([N+](=O)[O-])cc4)CC3)c2c1
→ i | 0.15
- O=C(CS(=O)(=O)Cc1ccccc1)N1CCc2ccccc2C1
→ i | 1.5
- Cc1ccc(C)c(N2CCN(C(=O)COc3cc(=O)n(C)c4ccccc34)CC2)c1
→ i | 3.8
- CCc1cc2c(=O)c(-c3nc4ccccc4n3C)c(C)oc2c(CN2CCCCC2)c1O
→ i | -1.1
- O=C(c1ccc2snnc2c1)N1CCN(c2ccccc2)CC1
→ i | -1.4
- Cc1cc2nc(SCCN3CCCC3)[nH]c2cc1C
→ i | -0.05
- CN(C)S(=O)(=O)c1ccc(N2CCCC2)c(C(=O)NCC2COc3ccccc3O2)c1 (stereo not given)
→ i | 0.26
- c1ccc(-c2nc(C3CCCCC3)c3sccc3n2)cc1
→ i | 0.21
- O=C1NCCN1C(=O)C12CC3CC(CC(C3)C1)C2
→ i | -1.5
- O=C(N/C(=C/c1ccccc1Cl)C(=O)N1CCCC1)c1ccccc1
→ i | 0.12
- CCc1nonc1NC(=O)c1oc2cc(C)c(Cl)cc2c1C
→ i | -0.26
- CSC1=NCCN1S(=O)(=O)c1ccc(C)cc1
→ i | 1.3
- Cc1cc(Cl)ccc1N(CC(=O)NCc1ccccc1)S(C)(=O)=O
→ i | 0.34
- COc1ccc(-n2c(=S)[nH]c3[nH]ncc3c2=O)cc1
→ i | 0.01
- COC(=O)c1cc(C(=O)OC)cc(-n2c(C)cc(C(=O)CC#N)c2C)c1
→ i | -0.09
- COc1cc(/C=N/NC(=O)CCn2cnc(-c3ccccc3)c2-c2ccccc2)ccc1O
→ i | -1
- CN1CCN(C(=O)c2ccc(N3CCCC3=O)cc2)CC1
→ i | -2.4
- CCOC(=O)NC1(C(F)(F)F)NC(=O)N(C2CCCCC2)C1=O (stereo not given)
→ i | -0.91
- CN(C)S(=O)(=O)c1cccc(NC(=O)CSc2nnnn2-c2ccccc2)c1
→ i | -0.2
- CCCC(=O)NCC(c1cccs1)S(=O)(=O)c1ccc(C)cc1 (stereo not given)
→ i | -1.9

Continued.
Values run as follows: KCNQ2 block | KCNQ2 block baseline
- O=C(CCCn1c(=S)[nH]c2ccsc2c1=O)Nc1ccc2c(c1)OCCO2
→ i | -0.7
- C=CCn1cc(C(C)=O)c(=O)[nH]c1=O
→ i | 0.76
- CCOc1ccc(N(CC(=O)NC2CCCC2)C(=O)c2ccc(C)s2)cc1
→ i | -2.2
- O=C(O)C1CCC(=O)N(C2CCCCC2)C1c1ccccc1Cl (stereo not given)
→ i | -0.89
- CCOc1cc(/C=C/C(=O)OCC(=O)NCc2ccco2)cc(Cl)c1OC
→ i | -0.81
- COc1ccc(C(=O)Oc2ccc3oc(=O)sc3c2)cc1
→ i | -0.83
- O=C(COc1ccc([N+](=O)[O-])cc1)Nc1nc(-c2ccccn2)cs1
→ i | -0.03
- O=C(c1ccccc1)c1cc2cc(Cl)ccc2[nH]1
→ i | 0.59
- Cn1cc(C(=O)Nc2ccc(F)c(F)c2)cn1
→ i | 1.8
- CS(=O)(=O)c1ccc(C(=O)NC(Cc2ccccc2)c2ccccc2)cc1 (stereo not given)
→ i | 0.41
- O=C(O)c1ccc2c(c1)C(=O)/C(=C\c1ccco1)C2=O
→ i | -0.82
- Cc1cccc(C)c1OC(=O)CSc1nnc(-c2ccccc2)o1
→ i | -0.46
- O=C(O)c1cc2c(ccc3ccccc32)o1
→ i | 0.67
- Cc1ccc(CN2CCC(n3nccc3NC(=O)CCOc3ccccc3)CC2)cc1C
→ i | 0.33
- CC(C)CCOC(=O)C1C(c2ccccc2)C(C(=O)O)C1c1ccccc1 (stereo not given)
→ i | -1.6
- Fc1ccc(/C=N/Nc2nc3ccccc3[nH]2)cc1F
→ i | 1.6
- COc1ccccc1C/C(N)=N/OC(=O)COc1ccccc1C
→ i | -0.49
- Cc1cc(=O)oc2n[nH]c(-c3ccccc3)c12
→ i | 0.9
- CCc1nnc(NC(=O)c2cc(-c3ccco3)nc3ccccc23)s1
→ i | -0.64
- COc1ccc(N2CCC(CNC(=S)Nc3cc(C)ccc3C)C2)cc1 (stereo not given)
→ i | 0.05
- COC(=O)[C@H](CCSC)NC(=O)[C@@H](Cc1cnc[nH]1)NC(=O)OCc1ccccc1
→ i | 0.06
- O=C(NNc1cc(Br)c(O)c(Br)c1)c1ccccc1
→ i | 0.01
- Cc1ccccc1NC(=O)C(=O)Nc1ccccc1C
→ i | -0.06
- Cc1cc(N2CCN(c3ccc(C(F)(F)F)cc3[N+](=O)[O-])CC2)c2ccccc2n1
→ i | -0.26
- CCOC(=O)C1CCCN(C(=O)c2cc3c(OC)c(OC)c(OC)cc3[nH]2)C1 (stereo not given)
→ i | 0.01
- CCOC(=O)N1CCN(C(=O)C(CC(C)C)NC(=O)C2CCCCC2)CC1 (stereo not given)
→ i | 0.73
- CCOC(=O)CNC(=O)c1ccc(SCC)cc1
→ i | 0.65
- Cc1cc(C(=O)OCC(=O)Nc2cc(S(=O)(=O)N(C)C)ccc2C)c(C)o1
→ i | 1.2
- COc1ccc(C(=O)OCc2csc(C)n2)c(O)c1
→ i | 0.79
- N#Cc1ccccc1-c1ccccc1C(=O)N1CCCCC1
→ i | -4.2
- CCOc1ccccc1NC(=O)C(NC(=O)C1CCC(C)CC1)C(C)C (stereo not given)
→ i | 0.01
- CCOc1ccc(-c2nnn(CC(=O)N3CCCC3)n2)cc1OCC
→ i | -1.7
- CC(=O)Nc1cccc(OCCCNC(=O)c2ccc(C(C)(C)C)cc2)c1
→ i | 1.8

Compound activity deposited in PubChem by Johns Hopkins Ion Channel Center.
